PD-1 reverse act – reversal of PD-1 mediated T-cell inhibition; 29,000 tested, under 10 active; primary human CD4 T cells, PD-L1 beads, CellTiter-Glo 96 h; AID 2316; activation, % (no concentration beside the values);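 active = replicate mean of 50% or more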;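 also: 0% = median vehicle wells and 100% = positive control; 100 nL library stock added to about 50 µL; numbers are from one replicate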
Shh pathway inh – Sonic Hedgehog pathway inhibition; AID 2313; inhibition, % (test concentration not listed); 2.1% of 22,000 active; Shh-LIGHT2 Gli-luciferase reporter, 30 h;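 active = replicate mean of 65% or more; inconclusive = mean lower but half the replicates past it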;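 also: pathway switched on by Shh-conditioned medium diluted 1 in 25 in low serum; 100 nL library stock added to about 40 µL; 0% = median of neutral wells and 100% = positive control level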
MITF inh – inhibitors of MITF | TRPM1 promoter luciferase, luminescence, 24 h | inhibition, % (concentration not given with the values) | 0.28% of 37,000 active | AID 2240;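 active = most replicates at 85% or more, or half of them and the mean; inconclusive = half reach 85% but not the mean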;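 also: human melanocyte line stably carrying TRPM1 promoter luciferase reporter; 0% = vehicle wells and 100% = a positive control; the first replicate is given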
YB-1 expression – YB-1 expression inhibition; U2OS, qRT-PCR YB-1 vs CDIP delta delta Cp, 16 h; hits give high values; zero = DMSO, each unit about twofold; delta delta Cp (YB-1 minus CDIP) (test concentration not listed); 0.37% of 30,000 active;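 active = delta delta Cp rounded down to an integer at or above 3, about 3 SD of DMSO wells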;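 also: higher means less YB-1 transcript or more CDIP transcript relative to DMSO; stock transfer was 100 nL into about 100 µL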
The depositor's hits bear a star; u = inconclusive; x = not tested or not shown.

Every second line gives: PD-1 reverse act | Shh pathway inh | MITF inh | YB-1 expression
C[C@H](CO)N1C[C@H](C)[C@@H](CN(C)C(=O)Nc2ccc(F)cc2)Oc2ccc(NC(=O)c3ccncc3)cc2C1=O
  -1.2 | x | -5 | -1
C[C@H](CO)N1C[C@H](C)[C@H](CN(C)C(=O)Nc2ccc(F)cc2)Oc2ccc(NC(=O)CCC(F)(F)F)cc2CC1=O
  2.0 | 47 | -7 | -0.5
C[C@@H]1CN([C@H](C)CO)C(=O)Cc2cc(N(C)C)ccc2O[C@H]1CN(C)C(=O)Nc1ccc(C(F)(F)F)cc1
  x | 5 | 3 | 0.059
Cn1c(SCC(=O)Nc2ccc(I)cc2)nnc1-c1ccc(Cl)cc1
  -1.4 | x | 2 | x
Cc1noc(C)c1NC(=O)N(C)C[C@H]1Oc2ccc(NC(=O)Nc3ccccc3)cc2CC(=O)N([C@@H](C)CO)C[C@@H]1C
  0.1 | -15 | -8 | -0.4
CC(C)NC(=O)N(C)C[C@@H]1Oc2ccc(NC(=O)CCCCCC(=O)Nc3ccccc3N)cc2C(=O)N([C@H](C)CO)C[C@@H]1C
  0.1 | x | -3 | 0.13
O=C(/C=C/c1ccccc1)OC[C@H]1O[C@@H](O[C@@H]2CC(C(=O)O)=C[C@@H](O)[C@H]2O)[C@H](O)[C@@H](O)[C@@H]1O
  x | -12 | x | 0.2
C[C@@H]1CN([C@@H](C)CO)C(=O)Cc2cc(NS(C)(=O)=O)ccc2O[C@@H]1CN(C)S(C)(=O)=O
  1.3 | 0 | 0 | -0.079
C[C@@H]1CN([C@H](C)CO)C(=O)c2cccc(NS(=O)(=O)c3ccc(F)cc3)c2O[C@H]1CN(C)S(=O)(=O)c1ccccc1
  3.3 | -8 | -29 | -0.0091
Cc1cc(C(=O)Nc2cccc3c2O[C@@H](CN(C)S(=O)(=O)c2ccc(F)cc2)[C@H](C)CN([C@H](C)CO)C3=O)n(C)n1
  0.8 | 28 | -13 | -0.073
CCOC(=O)c1c(NC(=O)CSc2ncn[nH]2)sc2c1CCC2
  -0.7 | x | 21 | x
C[C@H]1CN([C@@H](C)CO)C(=O)Cc2cc(NC(=O)c3ccncc3)ccc2O[C@@H]1CN(C)S(C)(=O)=O
  1.3 | 32 | -10 | -0.18
C[C@H]1CN([C@@H](C)CO)C(=O)Cc2cc(NC(=O)Cc3cn(C)c4ccccc34)ccc2O[C@@H]1CN(C)S(=O)(=O)c1cn(C)cn1
  0.8 | x | -1 | -0.6
COc1ccc(S(=O)(=O)N(C)C[C@H]2OCCCC[C@@H](C)Oc3ccc(NS(=O)(=O)c4ccccc4)cc3C(=O)N([C@H](C)CO)C[C@@H]2C)cc1
  x | 10 | 10 | 0.37
O=C(CSc1n[nH]c(-c2ccncc2)n1)Nc1ccc(Cl)cc1Cl
  1.5 | x | -17 | x
COC(=O)c1ccccc1NC(=O)Cn1c(C(F)(F)F)nc2ccccc21
  1.6 | x | -2 | x
O=c1c2ccccc2[nH]c(=S)n1CCc1ccccc1
  -0.2 | -55 | -16 | -0.65
CCCCCCCC1OC(=O)CCC(O)/C=C\C(O)C1O (stereo unspecified)
  -3.4 | -12 | -2 | -0.12
C[C@H](CO)N1C[C@H](C)[C@@H](CN(C)Cc2ccncc2)Oc2c(NC(=O)C3CCOCC3)cccc2C1=O
  0.9 | u | -2 | 0.21
C[C@@H]1CN([C@H](C)CO)C(=O)c2cc(NC(=O)c3ccncc3)ccc2O[C@@H]1CN(C)S(C)(=O)=O
  0.3 | -13 | -5 | -0.16
C[C@@H]1O[C@@H](Oc2cc(O)c3c(=O)c(O[C@@H]4O[C@@H](C)[C@H](O)[C@@H](O[C@@H]5OC[C@@H](O)[C@H](O)[C@H]5O)[C@H]4O[C@@H]4O[C@H](CO)[C@@H](O)[C@H](O)[C@H]4O)c(-c4ccc(O)cc4)oc3c2)[C@H](O)[C@H](O)[C@H]1O
  -0.7 | -12 | -18 | 0.16
CCOc1ccc(-n2nc3cc(C)c(NC(=O)c4cc(-n5cnnc5)ccc4Cl)cc3n2)cc1
  0.1 | x | -20 | x
COc1ccc(NC(=O)N(C)C[C@H]2Oc3ccc(NC(=O)NC(C)C)cc3CC(=O)N([C@@H](C)CO)C[C@H]2C)cc1
  -1.5 | 28 | -2 | 0.34
O=C(CSc1n[nH]c(-c2ccco2)n1)Nc1ccc(I)cc1
  -0.9 | x | -24 | x
C[C@@H]1CCCCO[C@@H](CN(C)C(=O)CCCN(C)C)[C@@H](C)CN([C@H](C)CO)C(=O)c2cc(NS(=O)(=O)c3ccc(F)cc3)ccc2O1
  x | -4 | -5 | -0.13
COc1ccc(-c2nnc(SCC(=O)c3ccc(F)cc3)n2-c2ccccc2)cc1OC
  -3.1 | x | 25 | x
C[C@@H]1CN([C@@H](C)CO)C(=O)c2cc(NC(=O)Cn3cnnn3)ccc2O[C@@H]1CN(C)S(=O)(=O)c1ccc(F)cc1
  0.9 | x | -14 | 0.056
CNC[C@@H]1Oc2c(NC(=O)Nc3c(C)noc3C)cccc2C(=O)N([C@@H](C)CO)C[C@@H]1C
  2.7 | -27 | 3 | 0.088
COc1ccc(S(=O)(=O)Nc2cccc3c2O[C@H](CN(C)Cc2ccc4c(c2)OCO4)[C@@H](C)CN([C@@H](C)CO)C3=O)cc1
  2.3 | -8 | -27 | -0.056
C=CC(C)(C)c1[nH]cnc1/C=C1\NC(=O)C(C(C)C)NC1=O (stereo unspecified)
  1.5 | -6 | 14 | 0.056
C[C@H]1CN([C@@H](C)CO)C(=O)c2cc(NS(C)(=O)=O)ccc2O[C@H]1CN(C)Cc1ccncc1
  1.3 | -17 | -5 | 0.089
C[C@@H]1CN([C@H](C)CO)C(=O)c2cc(NC(=O)CCN3CCOCC3)ccc2O[C@H]1CN(C)S(=O)(=O)c1ccc(Cl)cc1
  -1.9 | -17 | -1 | -0.45
CC(C)NC(=O)N(C)C[C@@H]1Oc2ccc(NS(C)(=O)=O)cc2C(=O)N([C@@H](C)CO)C[C@H]1C
  0.9 | -14 | 7 | -0.47
CCCCC[C@H](O)/C=C/[C@H]1C=CC(=O)[C@@H]1CCCCCCC(=O)O
  -1.9 | -8 | -7 | 0.54
C/C=C(/C)C(=O)O[C@@H]1Cc2c(ccc3ccc(=O)oc23)OC1(C)C
  x | 0 | 7 | 0.21
Cc1ccc(S(=O)(=O)N[C@@H](Cc2ccccc2)C(=O)CCl)cc1
  x | 95* | 83 | 0.84
C[C@H]1CN([C@@H](C)CO)C(=O)c2cccc(NC(=O)c3cnccn3)c2O[C@H]1CN(C)S(=O)(=O)c1ccccc1
  0.8 | 12 | -22 | -0.08
COc1ccc(NC(=O)Cc2ccccc2[N+](=O)[O-])cc1OC
  3.3 | x | 7 | x
Cc1ccc(C)c(OCCCC(C)(C)C(=O)O)c1
  x | -11 | 3 | -0.072
COc1ccc(NC(=O)N(C)C[C@H]2Oc3ccc(NC(=O)c4ccncc4)cc3CC(=O)N([C@@H](C)CO)C[C@@H]2C)cc1
  1.2 | -12 | -1 | -0.12

Single entries from the results shown.
YB-1 expression with `C[C@@H]1CN([C@@H](C)CO)C(=O)c2cc(NC(=O)Cn3cnnn3)ccc2O[C@@H]1CN(C)S(=O)(=O)c1ccc(F)cc1` is entered as 0.056
PD-1 reverse act with `C[C@H](CO)N1C[C@H](C)[C@@H](CN(C)C(=O)Nc2ccc(F)cc2)Oc2ccc(NC(=O)c3ccncc3)cc2C1=O` is entered as -1.2

Other structures:
Every second line gives: PD-1 reverse act | Shh pathway inh | MITF inh | YB-1 expression
C[C@@H]1CN([C@@H](C)CO)C(=O)c2cccc(NC(=O)Nc3ccc(C(F)(F)F)cc3)c2O[C@H]1CN(C)S(=O)(=O)c1ccc(Cl)cc1
  0.2 | -6 | 8 | 0.36
CC(CO)(CO)NS(=O)(=O)c1ccccc1
  1.2 | -19 | 0 | -0.1
O=C(NC(c1ccccc1)c1ccccc1)c1ccccc1Cl
  -0.3 | 39 | 3 | -0.35
C[C@H]1CN([C@@H](C)CO)C(=O)c2cc(NC(=O)C3CCCCC3)ccc2O[C@@H]1CN(C)Cc1ccncc1
  -2.1 | x | 3 | -0.14
CCN(CC)CCNC(=O)c1cc(S(C)(=O)=O)ccc1OC
  x | -4 | -13 | -0.034
Cc1noc(C)c1S(=O)(=O)Nc1ccc2c(c1)CC(=O)N([C@H](C)CO)C[C@H](C)[C@H](CN(C)C(=O)Nc1ccccc1)O2
  x | -3 | -15 | -0.41
Cc1ccc(S(=O)(=O)Nc2cccc3c2O[C@H](CN(C)C(=O)NC2CCCCC2)[C@H](C)CN([C@H](C)CO)C3=O)cc1
  x | x | 8 | -0.11
COc1ccc(NC(=O)N(C)C[C@H]2Oc3ccc(NS(=O)(=O)c4c(C)noc4C)cc3CC(=O)N([C@@H](C)CO)C[C@H]2C)cc1
  x | 50 | 4 | 0.046
C[C@H](CO)N1C[C@H](C)[C@H](CN(C)CC2CC2)Oc2ccc(NS(=O)(=O)c3ccccc3)cc2C1=O
  0.6 | 7 | 1 | -0.15
COc1ccc(S(=O)(=O)N(C)C[C@@H]2Oc3ccc(NC(=O)NC4CCCCC4)cc3CC(=O)N([C@@H](C)CO)C[C@@H]2C)cc1
  -0.1 | -4 | 11 | -0.21
C[C@H](C[C@@H](O)[C@](C)(O)[C@H]1CC[C@@]2(O)C3=CC(=O)[C@@H]4C[C@@H](O)[C@@H](O)C[C@]4(C)C3CC[C@]12C)C(C)(C)O (stereo partly specified)
  1.8 | -2 | -2 | -0.052
COC(=O)c1c(NC(=O)C2CC=CCC2C(=O)O)sc2c1CCC(c1ccccc1)C2 (stereo unspecified)
  0.3 | x | 9 | x
C[C@@H]1CN([C@H](C)CO)C(=O)Cc2cc(NC(=O)Nc3ccc(F)cc3)ccc2O[C@@H]1CN(C)S(=O)(=O)c1ccccc1
  -1.6 | -7 | -12 | 0.19
O=c1c(N2CCOCC2)nnc2sc3ccccc3n12
  -0.1 | -23 | -1 | 0.026
C[C@@H]1CN([C@H](C)CO)C(=O)c2cc(N(C)C)ccc2O[C@@H]1CN(C)Cc1ccc2c(c1)OCO2
  2.0 | 2 | 10 | -0.11
CNC[C@H]1Oc2c(NC(=O)c3ccncc3)cccc2C(=O)N([C@@H](C)CO)C[C@@H]1C
  2.8 | 14 | 0 | -0.16
COc1ccc(CN(C)C[C@@H]2Oc3c(NC(=O)Nc4ccc(C(F)(F)F)cc4)cccc3C(=O)N([C@H](C)CO)C[C@@H]2C)cc1
  -4.0 | 23 | -1 | -0.059
O=C(Nc1ccc([N+](=O)[O-])cc1O)Nc1ccccc1Br
  1.5 | -11 | -6 | 3*
C[C@@H]1CN([C@@H](C)CO)C(=O)Cc2cc(NS(=O)(=O)c3ccc(Cl)cc3)ccc2O[C@@H]1CN(C)C(=O)Nc1ccccc1
  0.4 | 13 | -3 | -0.34
Cc1noc(C)c1NC(=O)N(C)C[C@H]1OCCCC[C@@H](C)Oc2ccc(NC(=O)Nc3ccc(C(F)(F)F)cc3)cc2C(=O)N([C@H](C)CO)C[C@@H]1C
  -0.6 | -18 | 1 | -0.052
COc1ccc(NC(=O)c2ccco2)cc1NC(=O)CSc1ccc(Cl)cc1
  -0.4 | x | -36 | x
CC(=O)c1ccc(NC(=O)CSc2ncnc3c2sc2nc4c(cc23)COC(C)(C)C4)cc1
  -1.9 | x | -52 | x
COc1ccc(NC(=O)N(C)C[C@@H]2Oc3c(NC(=O)c4ccncc4)cccc3C(=O)N([C@@H](C)CO)C[C@@H]2C)cc1
  1.8 | -19 | 1 | -0.23
O=C(COc1ccc([N+](=O)[O-])cc1)Nc1cccc(-c2nc3c(ccc4ccccc43)o2)c1
  0.1 | x | -31 | x
O=C(Nc1ccccc1)c1ccc(S(=O)(=O)NCc2ccco2)cc1
  3.1 | x | -37 | x
COc1ccc(CNc2nc(-c3ccc(Cl)cc3)nn2C(=O)c2ccco2)cc1
  1.0 | x | -19 | x
C[C@@H]1CN([C@@H](C)CO)C(=O)c2cc(N(C)C)ccc2O[C@H]1CN(C)C(=O)Nc1ccc(C(F)(F)F)cc1
  x | 15 | 16 | 0.19
Cc1cccc(C(=O)Nc2ccc3[nH]c(=O)[nH]c3c2)c1
  1.4 | x | -9 | -0.27
C[C@@H]1CN([C@@H](C)CO)C(=O)Cc2cc(NS(C)(=O)=O)ccc2O[C@@H]1CN(C)S(=O)(=O)c1ccc(F)cc1
  1.1 | x | 14 | -0.36

Entries of single compounds, looked up by structure:
Cc1cccc(C(=O)Nc2ccc3[nH]c(=O)[nH]c3c2)c1 in the list: PD-1 reverse act: 1.4; Shh pathway inh: x; MITF inh: -9; YB-1 expression: -0.27
COc1ccc(NC(=O)c2ccco2)cc1NC(=O)CSc1ccc(Cl)cc1 in the list: PD-1 reverse act: -0.4; Shh pathway inh: x; MITF inh: -36; YB-1 expression: x

Screening results (PubChem BioAssay)

The list is partial; rates above refer to the full screens.
